# Screens (PubChem)
# TRPML1 blocker: human mucolipin-1 channel inhibition. TRPML1-inducible cells, Ca2+ dye fluorescence, FDSS; hits give low values; inhibition of EC80 agonist-evoked calcium signal. activity change, negative = inhibition, % (no concentration beside the values). 390,000 compounds, 0.02% hits. AID 624415; in the data active means activity change below about -50%; inconclusive means about -30% to -50%; inactive means above about -30%;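 further: stimulus is agonist 54-4 at its EC80 concentration; on the % scale 0 is the no-effect control and ±100 the full control effect; compound concentration not given in the record; the text of the record puts the active cut at -80%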
# Target sequence (Q9GZU1 whole entry, looked up): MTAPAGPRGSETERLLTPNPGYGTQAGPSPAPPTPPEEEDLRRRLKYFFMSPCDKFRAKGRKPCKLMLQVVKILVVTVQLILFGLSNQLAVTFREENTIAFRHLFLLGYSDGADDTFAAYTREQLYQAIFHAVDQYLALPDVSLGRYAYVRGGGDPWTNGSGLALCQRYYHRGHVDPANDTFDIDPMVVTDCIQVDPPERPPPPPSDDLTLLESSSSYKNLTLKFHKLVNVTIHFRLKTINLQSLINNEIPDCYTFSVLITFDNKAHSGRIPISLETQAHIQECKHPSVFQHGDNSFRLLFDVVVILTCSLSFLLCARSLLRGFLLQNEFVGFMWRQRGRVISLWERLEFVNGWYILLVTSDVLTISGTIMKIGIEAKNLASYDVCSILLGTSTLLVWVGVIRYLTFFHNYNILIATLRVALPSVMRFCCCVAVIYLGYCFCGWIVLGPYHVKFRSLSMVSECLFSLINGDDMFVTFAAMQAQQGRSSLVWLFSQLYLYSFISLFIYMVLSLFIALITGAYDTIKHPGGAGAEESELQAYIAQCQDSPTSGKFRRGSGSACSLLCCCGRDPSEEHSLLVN
#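 TRPML1-DL cells, Tet-induced overnight (~16 h, 37 °C) at 1,500 cells/well, were loaded with Ca8 no-wash dye plus quencher for 45-90 min at room temperature. Compounds were pinned during FDSS kinetic reading; agonist 54-4 at EC80 (4 uM final) then added.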
# ClpP mod: qHTS Assay for Activators of ClpP; 340,000 compounds, 1.9% hits; ATP-dependent Clp protease proteolytic subunit (Bacillus subtilis (strain 168)), P80244; purified B. subtilis ClpP, FRET peptide cleavage, 20 min; AID 651965, 2013; Potency, µM (series often up to 57.5 µM), inactives show at the top dose activity change, negative = active; active = well fitted falling curve with a large enough effect; inconclusive = small, poorly fitted or top-dose-only effect; inactive = no such curve, though single readings can be large or run the other way; further: potency means the concentration at half of the fitted maximal effect; the source files actives as falling curves though it sought activators and does not explain the sign; nearly all actives have a fitted effect of over 65% in size; many hits overshoot -100%
# Target sequence (P80244 whole entry, looked up): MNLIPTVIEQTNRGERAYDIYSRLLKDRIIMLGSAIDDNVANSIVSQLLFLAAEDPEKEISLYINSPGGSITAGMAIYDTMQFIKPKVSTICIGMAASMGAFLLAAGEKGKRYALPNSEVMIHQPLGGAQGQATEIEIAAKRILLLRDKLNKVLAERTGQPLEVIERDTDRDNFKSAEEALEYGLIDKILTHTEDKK
#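 FRET quenching reversal measured ClpP activation: 10 microg/mL B. subtilis ClpP at pH 8 with the FRET-FV decapeptide, read at 430 nm after 320 nm excitation. The 20-min minus 0-min signal was scaled between DMSO/no-enzyme wells and ADEP (5.8 microM final).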
# gsp antagonist: antagonizes gsp, the McCune-Albright syndrome mutation. gsp-mutant cells, cAMP HTRF, 30 min; control for the full effect not named in the record. Potency, µM (doses to about 76.9 µM), for inactives: top-dose activity change, negative = inhibition, actives largely listed as inhibitors. 340,000 compounds, 0.4% hits; active = falling curve of any shape with a large fitted effect; inconclusive = falling curve, mostly with a smaller effect; inactive = flat or rising curve; cell line not stated here;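 further: intracellular cAMP measured with PDE inhibitor Ro 20-1724 present during compound exposure; potency means the concentration at half of the fitted maximal effect; on the % scale 0 is the no-effect control and ±100 the full control effect; nearly all actives have a fitted effect of over 65% in size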
#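 HTRF cAMP read-out (cAMP-d2 plus anti-cAMP antibody-K in lysis buffer, 30 min RT). Before lysis, cells are exposed to compounds with […] for 30 min at 37C in DPBS containing Ca/Mg, BSA and Tween 20.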
# Menin MLL FP FL: menin-MLL binding inhibition, fluorescein peptide. Fluorescence polarization, fluorescein-MLL peptide displacement from menin. FP activity change, % at 61.4 µM. 290,000 tested, under 10 active. AID 1766; inconclusive = falling polarisation curve, or a change in total fluorescence; inactive = total fluorescence flat and polarisation flat or rising; no compound was filed as active; the % refers to the polarisation; negative = inhibition;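 further: % of control where 0% means no effect; inhibitors lower the polarisation; unlabelled MLL peptide was the positive control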
# gsp agonist: activates gsp, the McCune-Albright syndrome mutation. gsp mutant cells, cAMP HTRF, 30 min; control for the full effect not named in the record. Potency, µM (top dose mostly 76.9 µM), for the others: at the top dose activation (cAMP increase), hits mostly activators. 340,000 compounds, 0.13% hits. AID 624287; active = well fitted activation curve with a large enough effect; inconclusive = small, poorly fitted or top-dose-only effect, or another doubt; inactive = no such curve, though single readings can be large or run the other way; cell line not stated here;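 further: phosphodiesterase inhibitor Ro 20-1724 added with compounds to block cAMP breakdown; potency means the concentration at half of the fitted maximal effect; nearly all actives have a fitted effect of over 60% in size; about a fifth of the inactives were tested at one dose only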
#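 Cells stably selected in G418 were plated at 2000/well, grown 16-24 hr, then given compounds in DMSO with the PDE inhibitor […] (300 uM solution added) for 30 min at 37C; cAMP was read by HTRF.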
# TRPML1 ag: agonists of human TRPML1 channel. activation, % (concentration not given with the values). 410,000 compounds, 0.12% hits. Q9GZU1. TRPML1-expressing cells, Ca2+ dye fluorescence, FDSS; host cell line not named in the record; reference of the full effect not given here. AID 624414; in the data active = activation above about 50%; inconclusive = about 30% to 50%; inactive = below about 30%; further: 0% is about no effect; the text of the record puts the active cut at 80%
#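 Tet-induced TRPML1-DL cells, 1,500 per well, cultured overnight, were loaded with a no-wash Ca2+ dye for 45–90 min. Calcium fluorescence was recorded on the FDSS for 110 s after compound addition, before the EC80 agonist (4 uM 54-4) was added.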
# * hit, by the source's call; ? = inconclusive; nt = not tested or not shown; & = joins results of further samples; [ ] = dose if it differs, or a comment.
# Values run as follows: TRPML1 blocker, ClpP mod, gsp antagonist, Menin MLL FP FL, gsp agonist, TRPML1 ag
> Cc1ccc(-c2nnc(Nc3ccc(Br)cc3)c3ccccc23)cc1S(=O)(=O)N1CCCCC1
  -24, -11%, nt, nt, nt, -0.9
> CS(=O)(=O)c1[nH]nc(-c2ccccc2Cl)c1C#N
  ?, nt, -14%, 1.1, ?, 1.0
> CCC(NC(=O)c1cc(COc2cncc(Cl)c2)on1)c1ccncc1 (stereo unspecified)
  17, -1.9%, -1%, -2.2, -2%, 1.8
> CCOC(=O)N1CCN(Cc2c(F)cccc2Cl)CC1
  6, -1.1%, 0%, 1.1, 28%, -0.6
> COc1cc(C(=O)O/N=C(\N)c2ccc([N+](=O)[O-])cc2)cc(OC)c1OC
  31, -1.5%, 1%, 1.8, 1%, 1.2
> FC(F)(F)c1cc(Cl)c2nnc(-c3cccnc3)n2c1
  -9, nt, 0%, -0.1, ?, -0.4
> C=CCOc1ccc(/C=C/C(=O)OCC(=O)NCCC2=CCCCC2)cc1
  2, -29%, 7%, -0.2, ?, 2.2
> O=c1nc2ccc(Cl)cn2c2ccc(S(=O)(=O)N3CCCCC3)cc12
  49, nt, 9%, -13, -14%[15.4 µM], 8.8
> COc1ccc2c(c1)c(=O)c(S(=O)(=O)c1ccc(F)cc1)cn2Cc1ccccc1Cl
  -6, ?, nt, nt, nt, 1.8
> CCCc1cc(=O)oc2cc(OCC(=O)N3CCC(C(N)=O)CC3)ccc12
  nt, 5.4%, -3%, -2.9, nt, nt
> COC(=O)c1ccc(NC(=O)C2CCCN(S(=O)(=O)c3cnc[nH]3)C2)cc1 (stereo unspecified)
  -3, 0.9%, 8%, 0.2, -3%, -0.2
> CC(C)(C)S(=O)N1Cc2cc(C(=O)NCC(F)(F)F)nc(-c3cccc(-c4cccc(F)c4)c3)c2[C@H]1CCO (stereo partly specified)
  23, 4.8%, nt, nt, nt, 0.0
> O=C(Nc1ccc([N+](=O)[O-])cc1)c1ccccc1F
  32, 0.9%, 2%, -0.7, 23%, 1.9
> COc1ccc(CCNC(=O)c2ccc(Cl)c(S(=O)(=O)N3CCCC3)c2)cc1
  1, -1.5%, -23%, nt, 18%, -1.9
> CC1CCC(NC(=O)c2ccc(CSc3nc4ccncc4n3Cc3ccc(F)cc3)cc2)CC1 (stereo unspecified)
  32, -10%, nt, nt, nt, -0.6
> O=C(Cc1ccccc1[N+](=O)[O-])N1CCN(c2ccc(F)cc2)CC1
  31, nt, 1%, -0.9, 24%, 1.8
> C/C(=N\OC(=O)Nc1ccc(Cl)cc1)c1ncc(C(F)(F)F)cc1N1CCOCC1
  12, ?, 4%, 2.8, 15%, 0.6
> COc1cc(OC)c2c(-c3ccccc3)cc(=O)oc2c1C(CCN1CCCCC1)c1ccc2c(c1)OCO2 (stereo unspecified)
  15&9, -2.1%, 12%, ?, nt, 8.1&1.5
> O=C(NC1CCCCCC1)c1cc(S(=O)(=O)N2CCCCC2)ccc1N1CCOCC1
  -8, -0.9%, -9%, -1.1, ?, -0.9
> O=C(NCc1ccc2c(c1)OCO2)Nc1ccc2nsnc2c1
  -19, nt, -9%, -0.7, -1%[15.4 µM], 1.8

# Molecules above that have a nitro group on carbon (3):
# Values run as follows: TRPML1 blocker, ClpP mod, gsp antagonist, Menin MLL FP FL, gsp agonist, TRPML1 ag
> COc1cc(C(=O)O/N=C(\N)c2ccc([N+](=O)[O-])cc2)cc(OC)c1OC
  31, -1.5%, 1%, 1.8, 1%, 1.2
> O=C(Nc1ccc([N+](=O)[O-])cc1)c1ccccc1F
  32, 0.9%, 2%, -0.7, 23%, 1.9
> O=C(Cc1ccccc1[N+](=O)[O-])N1CCN(c2ccc(F)cc2)CC1
  31, nt, 1%, -0.9, 24%, 1.8

# (further entries)
# Values run as follows: TRPML1 blocker, ClpP mod, gsp antagonist, Menin MLL FP FL, gsp agonist, TRPML1 ag
> Nc1nnc(CCS(=O)(=O)c2ccc(Br)cc2)s1
  5, 2.2%, 6%, 0.4, -5%, 0.6
> Oc1c(C(c2ccccc2F)N2CCCC2)sc2nc(-c3ccco3)nn12 (stereo unspecified)
  2, 0.4%, nt, nt, nt, 2.1
> NS(=O)(=O)c1ccc(CCNC(=O)CSc2nc3ccsc3c(=O)n2Cc2ccccn2)cc1
  3, -2.4%, nt, nt, -2%, -0.5
> Cc1ccc(-c2nnc(-c3ccccc3S(=O)(=O)Cc3ccc(Cl)cc3)o2)cc1
  16, 65%, -3%, 4.4, 6%, 0.8
> OCCN(Cc1ccccc1)Cc1nc(CC2CC2)no1
  -4, 2.2%, 14%, -2.3, -42%[inhibitor], -0.4
> Cc1cccc(-c2noc(CNC(=O)c3ccoc3C)n2)c1
  27, 0.0%, 2%, nt, 3%, -0.3
> CCOc1ccc(NC(=O)CSc2c3c(nc4ccccc24)CCCC3)cc1
  -9, 0.7%, nt, nt, nt, 3.5
> CCC(=O)NCCc1nc2ccccc2n1Cc1ccc(C)cc1
  -3, 2.6%, -5%, -1.8, -15%, -0.2
> O=C1NC(c2ccccc2)=CC(c2ccccc2)N1 (stereo unspecified)
  -7, nt, 4%, -2.7, -5%[15.4 µM], -0.5
> O=C(NCCCN1CCOCC1)c1cc(-c2ccc(Cl)c(Cl)c2)on1
  3, nt, -1%, 0.0, 5%, 0.8
> CCOC(=O)[C@H](CCc1ccccc1)N[C@@H](C)C(=O)N1CCC[C@@H]1C(=O)O
  34, 1.5%, -4%, nt, nt, 0.3
> Cc1cc2ccccc2nc1Br
  1, -0.9%, 20%, 1.8, -34%[15.4 µM], 0.4
> O=C(NCc1ccc(F)cc1)c1ccc[nH]1
  -13, nt, -16%, 1.0, 13%[15.4 µM], 0.0
> Cc1cccc(C)c1NC(=O)CN(C)S(=O)(=O)c1ccc(-c2ccc(=O)[nH]n2)s1
  0, -1.9%, -9%, nt, -85%[inhibitor], 0.3
> O=C(NCc1ccc(F)cc1)c1cccc2c1C(=O)N(Cc1cccnc1)C2
  -6, 0.2%, 15%, 4.3, ?, 2.0
> O=C(N/N=C/c1cc([N+](=O)[O-])ccc1O)NC12CC3CC(CC(C3)C1)C2
  6, 1.1%, -11%, 1.0, -25%, 1.9
> CCOC(=O)C1=NNC(C(=O)O)C1c1ccccc1 (stereo unspecified)
  15, -6.7%, 8%, nt, -38%[inhibitor], 0.7
> CC1CCC(N2CC(=O)N(CCC3=CCCCC3)C(c3ccc(F)cc3)C2=O)CC1 (stereo unspecified)
  2, -1.3%, nt, nt, nt, 1.1
> Cc1ccc(CC2SC(=Nc3ccccc3)N(c3ccccc3)C2=O)cc1 (stereo unspecified)
  -6, -0.6%, -13%, 2.9, 13%, 4.6
> COc1cc(OC)cc(C(=O)Nc2ccc(-c3nc4ccccc4o3)c(O)c2)c1
  20, ?, -4%, 4.4, 14%, 1.9

# New compounds follow.
# Values run as follows: TRPML1 blocker, ClpP mod, gsp antagonist, Menin MLL FP FL, gsp agonist, TRPML1 ag
> CCCCCCCCNCCS(=O)(=O)NCc1ccccc1
  16, 1.3%, 6%, nt, nt, -1.1
> CCc1ccc(S(=O)(=O)NCc2ccc(N3CCN(C)CC3)cc2)cc1
  2, nt, 9%, 4.8, 30%, 1.1
> Cc1cc(C)c2c(=O)n(CC(=O)Nc3cccc(Cl)c3C)sc2n1
  -9, -9.9%, 2%, 10, 4%, 4.1
> CN(C)S(=O)(=O)c1ccc(C(=O)Nc2ccc(CN3CCCC3)cc2)cc1
  10, -0.2%, 7%, 12, 0%, 0.9
> COc1cc(C(=O)NNC(=O)CSc2nnc3ccccn23)cc(OC)c1OC
  -7, -12%, 12%, nt, 19%, 0.2
> COc1cccc(-c2nn(-c3ccccc3)cc2C(=O)O)c1
  31, -8.7%, -12%, 0.7, -41%[inhibitor], 1.0
> COc1cc(-c2nc3ccc4ccccc4c3c3c2CCC3)cc(OC)c1OC
  -3, 25µM*, -14%, 6.8, -16%, 0.3
> O=c1c(S(=O)(=O)c2ccc(Cl)cc2)cn(Cc2ccccc2)c2ccc(F)cc12
  -2, -15%, -12%, 5.5, 39%, -0.4
> Cc1cccc(NC(=O)C(=O)NCC(c2ccc3c(c2)OCO3)N2CCN(c3ccccc3)CC2)c1 (stereo unspecified)
  -6, 0.0%, nt, nt, nt, 0.4
> CN(C)CC(C)(C)CNC(C(=O)Nc1ccc(Cl)cc1C(F)(F)F)c1ccccc1 (stereo unspecified)
  6, 3.2%, 8%, 6.6, -52%[inhibitor], -0.4
> COc1ccc(C)cc1Cn1nnc2ccccc21
  6, -1.0%, -1%, nt, nt, 0.5
> O=C(C1CCN(S(=O)(=O)c2cccnc2)CC1)N1CCCCC1
  7, -0.2%, -2%, 2.0, -28%, -0.1
> Cc1ccnc(NC(=O)c2sc3cc(Cl)ccc3c2Cl)c1
  -3, 6.0%, 4%, 2.4, 14%, 0.3
> COc1ccc(CC(=O)Nc2ccc(-c3nc4ccccc4s3)cc2Cl)cc1OC
  -12, 4.6%, nt, nt, nt, 0.3
> CCc1csc(CCNC(=O)C2CCC(=O)N(Cc3ccccc3F)C2)n1 (stereo unspecified)
  -12, -3.8%, 8%, 0.0, 8%[15.4 µM], -0.2
> O=C(CN1C(=O)COc2ccc(Cl)cc21)NCC1CCCO1 (stereo unspecified)
  8, 2.2%, 8%, 1.9, 23%, 0.8
> Cc1ccc(C(C)C)c(OCC(O)CN(C)Cc2ccccc2)c1 (stereo unspecified)
  -8, nt, 8%, 6.2, -36%[inhibitor][15.4 µM], -1.1
> COc1ccc(N2C(=O)CC(Sc3nccc(C)n3)C2=O)c(OC)c1 (stereo unspecified)
  -3, 0.7%, nt, nt, -55%[inhibitor], -1.1
> Cn1cccc1-c1cc(C(=O)N/N=C/c2ccccc2Cl)[nH]n1
  13, -0.8%, -26%, -1.0, -6%, -0.7
> CC(=O)Nc1nc(-c2ccccc2)ns1
  5, -4.4%, -10%, 2.2, -10%, 0.1

# Further records:
# Values run as follows: TRPML1 blocker, ClpP mod, gsp antagonist, Menin MLL FP FL, gsp agonist, TRPML1 ag
> CN(CC(=O)Nc1ccc(F)cc1)CC(=O)Nc1ccc(F)c(F)c1F
  11, -1.2%, -1%, -2.0, -8%[15.4 µM], -0.7
> CCCCCCN=CC1=C(O)C(C(=O)OC)C(C)(C)CC1=O (stereo unspecified)
  -3, -1.0%, 5%, 4.0, 1%, 1.0
> CC(=O)c1ccc(N2CCN(S(=O)(=O)c3c(C(=O)N4CCCC4)c(C)n(C)c3C)CC2)cc1
  4, -10%, -9%, -1.3, -20%, 0.1
> Cn1ccc2cc(S(=O)(=O)N3CCCC(C(=O)NCc4ccccc4)C3)ccc21 (stereo unspecified)
  7, -7.2%, nt, nt, nt, 0.5
> CCCCN(CC)C(=O)/C=C/c1cccc([N+](=O)[O-])c1
  13, -0.4%, 7%, 2.4, -59%[inhibitor], -1.2
